CtBP-E1A inh = qHTS Assay for Inhibitors of the CtBP/E1A Interaction; CtBP / adenovirus E1A interaction (AlphaScreen); AlphaScreen GST-E1A/His-CtBP binding, 1536-well; hits give low values; control for the full effect not named in the record; activity change, % (concentration not given with the values); 340,000 tested, 0.49% active; AID 651724, 2012; in the data active means activity change below about -65%; inconclusive means about -30% to -65%; inactive means above about -30%; note: % is set by controls: 0 for no effect and ±100 for the full control effect
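Protein mix (5X: 125 nM each GST-E1A, His-CtBP) was incubated with pinned compound 2 h at 37 deg C in dark, in 50 mM Tris pH 8.0 buffer with 300 mM NaCl. Glutathione donor and nickel acceptor beads followed; AlphaScreen signal read after 1 h.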
TRPML1 blocker = qHTS for Inhibitors of the Human Mucolipin Transient Receptor Potential 1 (TRPML1); AID 624415, 2012; 390,000 tested, 0.02% active; Mucolipin-1 (Homo sapiens), Q9GZU1; activity change, negative = inhibition, % (no concentration beside the values); TRPML1-inducible cells, Ca2+ dye fluorescence, FDSS; hits give low values; inhibition of EC80 agonist-evoked calcium signal; in the data active means activity change below about -50%; inconclusive means about -30% to -50%; inactive means above about -30%;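 note: stimulus is agonist 54-4 at its EC80 concentration; % is set by controls: 0 for no effect and ±100 for the full control effect; compound concentration not given in the record; the text of the record puts the active cut at -80%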
Target sequence (Q9GZU1 whole entry, looked up): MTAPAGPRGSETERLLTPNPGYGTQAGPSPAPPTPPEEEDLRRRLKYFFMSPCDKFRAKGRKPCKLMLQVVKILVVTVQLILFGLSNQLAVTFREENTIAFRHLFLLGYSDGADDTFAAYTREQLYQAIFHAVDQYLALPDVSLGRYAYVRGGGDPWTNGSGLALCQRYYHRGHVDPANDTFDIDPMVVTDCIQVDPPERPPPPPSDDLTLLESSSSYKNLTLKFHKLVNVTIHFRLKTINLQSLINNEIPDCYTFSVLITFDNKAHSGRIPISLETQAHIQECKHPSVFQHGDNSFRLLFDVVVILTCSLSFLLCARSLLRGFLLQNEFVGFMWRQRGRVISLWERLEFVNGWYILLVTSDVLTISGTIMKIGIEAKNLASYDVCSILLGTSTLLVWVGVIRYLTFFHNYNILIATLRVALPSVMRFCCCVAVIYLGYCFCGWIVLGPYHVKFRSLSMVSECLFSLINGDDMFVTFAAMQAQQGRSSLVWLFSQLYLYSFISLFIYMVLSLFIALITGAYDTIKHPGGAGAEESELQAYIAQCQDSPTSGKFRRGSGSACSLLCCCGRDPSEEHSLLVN
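Tet-induced TRPML1-DL cells loaded with Ca8 no-wash calcium dye were read kinetically on FDSS. Compound addition was followed by EC80 agonist 54-4 (4 uM final); inhibition was read over 110 s.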
PINK1 expr mod = A Quantitative High throughput Screen to Identify Chemical Modulators of PINK1 Expression; PINK1 immunofluorescence, high-content cytometry, 24 h; Potency, µM (titrated, usually from 76.6 µM), inactives show top-dose activation (PINK1 increase), actives largely listed as activators; 410,000 tested, 0.2% active; active = well fitted activation curve with a large enough effect; inconclusive = small, poorly fitted or top-dose-only effect; inactive = flat fitted curve, though single readings scatter; cell line not stated here;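 note: potency is the fitted concentration of half-maximal effect; % of control where 0% means no effect; nearly all actives have a fitted effect of over 65% in size; a mitochondrial uncoupler was the plate control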
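Cells are seeded, rested 12 hours, then given compound at five concentrations or DMSO for 24 hours. After fixation, blocking and antibody staining, PINK1 amount and mitochondrial localization are scored; CCCP serves as control.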
Six1-Eya2 blk = qHTS Assay for Inhibitors of the Six1/Eya2 Interaction; Homeobox protein SIX1 (Homo sapiens) + Protein phosphatase EYA2 (Homo sapiens), …; AID 651725, 2012; activity change, % (concentration not given with the values); AlphaScreen GST-Six1/His-Eya2 binding, biochemical; hits give low values; control for the full effect not named in the record; 360,000 tested, 0.56% active; in the data active = activity change below about -65%; inconclusive = about -30% to -65%; inactive = above about -30%; note: % is set by controls: 0 for no effect and ±100 for the full control effect
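Six1/Eya2 binding was read as AlphaScreen signal after compounds were pinned into GST-Six1 plus His-tagged Eya2 (5X stock 250/500 nM) in pH 8.0 Tris/NaCl/TCEP buffer, beads added, then incubated 1 h, 37 C, dark.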
TRPML1 ag = qHTS for Agonists of the Human Mucolipin Transient Receptor Potential 1 (TRPML1); TRPML1-expressing cells, Ca2+ dye fluorescence, FDSS; host cell line not named in the record; reference of the full effect not given here; activation, % (concentration not given with the values); 410,000 tested, 0.12% active; in the data active = activation above about 50%; inconclusive = about 30% to 50%; inactive = below about 30%; note: 0% is about no effect; the text of the record puts the active cut at 80%
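Tet-induced TRPML1-DL cells, 1,500 per well, cultured overnight, were loaded with a no-wash Ca2+ dye for 45–90 min. Calcium fluorescence was recorded on the FDSS for 110 s after compound addition, before the EC80 agonist (4 uM 54-4) was added.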
D2 agonist = Beta-Arrestin HTS for Positive Allosteric Modulators of the Human D2 Dopamine Receptor: Agonists. D(2) dopamine receptor (Homo sapiens), P14416. DiscoveRx PathHunter D2 beta-arrestin, luminescence, 90 min; 100% = 57 uM dopamine signal. activation, % (no concentration beside the values). 360,000 tested, 0.084% active; in the data active = activation above about 40%; inconclusive = about 15% to 40%; inactive = below about 15%; note: compound concentration not given in the record; the text of the record calls up to 30% inactive
Target sequence (P14416 whole entry, looked up): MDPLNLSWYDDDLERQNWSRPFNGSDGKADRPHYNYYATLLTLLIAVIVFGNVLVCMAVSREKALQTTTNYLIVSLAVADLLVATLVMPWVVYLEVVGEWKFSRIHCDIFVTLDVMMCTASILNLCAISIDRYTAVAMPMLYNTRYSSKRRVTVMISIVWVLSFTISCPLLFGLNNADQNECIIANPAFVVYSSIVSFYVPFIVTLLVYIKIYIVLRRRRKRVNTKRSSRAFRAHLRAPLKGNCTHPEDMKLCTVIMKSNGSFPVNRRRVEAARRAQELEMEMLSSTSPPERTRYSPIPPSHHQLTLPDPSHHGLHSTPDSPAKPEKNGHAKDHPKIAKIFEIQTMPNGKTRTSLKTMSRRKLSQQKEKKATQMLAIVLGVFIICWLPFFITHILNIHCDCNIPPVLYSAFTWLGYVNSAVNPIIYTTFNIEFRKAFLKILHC
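Agonist mode: compounds alone added to overnight-plated D2 PathHunter cells for 90 min at 37 C, with 57 uM final dopamine (EC100) defining full response. Beta-arrestin recruitment detected by chemiluminescent reagent, read after 1 h at ambient temperature.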
Active calls of the source: *; ? = inconclusive; . = not tested or not shown; [ ] = dose if it differs, or a comment.

SMILES	CtBP-E1A inh	TRPML1 blocker	PINK1 expr mod	Six1-Eya2 blk	TRPML1 ag	D2 agonist
CCOc1cccc(/C(O)=C2/C(=O)C(=O)N(Cc3ccco3)C2c2ccncc2)c1 (centres undefined)	-2.6	25.0	-1.3%	2.6	0.5	1.8
COc1cc(NC(=O)C/C(C)=N/NC(=O)Cc2ccc(Cl)cc2)c(OC)cc1Cl	-19.1	-4.0	3.5%	-19.7	-0.7	-3.0
Cc1ccc(S(=O)(=O)NCCC(=O)Nc2ccc(Cl)c(Cl)c2)cc1C	.	8.4	2.2%	2.7	0.8	0.6
CC(=O)c1cccc(NC(=O)c2ccco2)c1	3.7	-18.2	0.3%	3.6	0.4	-3.2
CC(C)NC(=O)c1ccc(COCC(F)(F)C(F)F)cc1	-5.2	-26.5	3.8%[38.3 µM]	4.3	0.1	-3.0
COc1ccc(C(OC(=O)c2cccs2)C(=O)NCC2CCCO2)cc1 (centres undefined)	51.4	-9.8	.	20.4	0.5	-0.5
COc1ccc(CCNC(=O)C(=O)NCC2OCCN2S(=O)(=O)c2ccccc2)cc1 (centres undefined)	-3.7	-8.6	2.0%	4.8	0.3	0.7
CCc1ccc(S(=O)(=O)NCc2ccc3c(c2)CCN3C(=O)c2ccc(C)cc2)cc1	.	5.8	0.0%	.	1.8	.
Nc1nnc(SCC(=O)N2CCN(c3ccccc3)CC2)s1	9.7	-17.2	-3.0%	3.9	1.5	-0.5
CCN(CC)C(=O)c1sc2c(c1C)c(=O)n(-c1ccc(OC)cc1OC)c(=O)n2CC(=O)c1ccccc1	-4.6	8.2	0.1%	-3.7	-0.1	-3.4
CCOc1ccc(Nc2nc(N)c([N+](=O)[O-])c(NCc3ccccc3)n2)cc1	-8.5	-1.7	1.4%	-12.8	2.8	5.6
COCCN(C(=S)Nc1ccc(C)c(C)c1)C(C)c1ccco1 (centres undefined)	.	6.4	4.4%	-4.5	-0.9	-0.7
COc1ccc(OCc2cc(C(=O)N3CCCC(O)C3)no2)c2ccccc12 (centres undefined)	-10.5	7.1	1.1%	-1.7	-0.2	8.0
CN1CCN(c2nc(N3CCN(c4ccccc4)CC3)ncc2F)CC1	3.0	22.1	.	-11.8	0.0	-0.4
CCOC(=O)C1CCN(CC(C)(C)NS(=O)(=O)c2ccc(Cl)cc2)CC1	0.0	17.8	1.6%	-10.3	-1.4	1.3

Reprinted from the part before: 2 compounds; new compounds follow.
SMILES	CtBP-E1A inh	TRPML1 blocker	PINK1 expr mod	Six1-Eya2 blk	TRPML1 ag	D2 agonist
CN1CCN(c2nc(N3CCN(c4ccccc4)CC3)ncc2F)CC1	3.0	22.1	.	-11.8	0.0	-0.4
CCOC(=O)C1CCN(CC(C)(C)NS(=O)(=O)c2ccc(Cl)cc2)CC1	0.0	17.8	1.6%	-10.3	-1.4	1.3
COc1ccc(C2C=C(c3ccc(C)cc3)Nc3c(C(=O)Nc4ccccc4)cnn32)cc1 (centres undefined)	.	34.9	2.0%	.	0.1	.
COc1ccc(Cl)cc1S(=O)(=O)N1CCCC(C(=O)NCc2ccncc2)C1 (centres undefined)	3.6	2.7	5.5%	3.1	0.0	-3.9
CC(C)C[C@H]1CNC(=S)N1C[C@H]1CCCN1C[C@H](Cc1ccc(O)cc1)N1C[C@H](Cc2ccc(O)cc2)N(CC2CCCCCC2)C1=S	-8.1	-7.1	6.0%	-16.0	-0.4	8.1
C/C(CC(=O)Nc1cccc2c1CCCC2)=N\NC(=O)Cc1ccccc1	-7.3	-2.2	-0.5%	-1.4	2.4	0.6
O=C(CSc1ncc2c(n1)-c1ccccc1N(Cc1ccccc1)S2(=O)=O)Nc1ccccc1	.	20.9	-0.1%	.	0.9	.
CCOC(=O)c1c(C)sc(-c2c(-c3ccc4c(c3)OCCO4)[nH]c3c2c(=O)n(C)c(=O)n3C)c1O	.	1.7	-0.1%	.	0.4	.
CC(C)Oc1ccc(/C=C/C(=O)NCC2COc3ccccc3O2)cc1 (centres undefined)	9.5	-1.4	12.7%	4.0	1.2	-9.6
CCC(C)Nc1nc2c(c(=O)n(C)c(=O)n2C)n1Cc1ccc(F)cc1 (centres undefined)	9.2	-5.1	0.7%[38.3 µM]	-5.4	0.2	-3.2
CCOCCn1c(=O)c2c(nc3n2CCCN3Cc2ccccc2)n(C)c1=O	-3.4	-6.2	1.6%	-15.4	-0.4	-0.1
Cc1c(-c2ccc(Br)cc2)c(=O)oc2ccc(OC(=O)N3CCOCC3)cc12	.	14.0	-0.6%	.	-0.1	.
Cc1cccc(NC(=O)C2CCN(S(=O)(=O)c3ccc4c(c3)C(C)(C)C(=O)N4C)CC2)c1C	4.8	7.5	1.0%	4.4	-0.7	-4.7
CC1(C)CCCC(C)(C)N1CC(O)COCCOc1ccc(Br)cc1 (centres undefined)	-5.4	-9.9	-1.9%	1.4	0.3	-8.6
Cc1cc(C(F)(F)F)c(C#N)c(SCC(=O)NC(C)(C)C)n1	6.9	-20.7	-0.2%	23.5	0.9	-2.1
O=C(Cn1ccc2ccccc2c1=O)NCCC(=O)N1CCN(C2CCCCC2)CC1	-14.2	4.9	-0.2%	-14.3	-0.4	-3.7
CCOc1nc2cnccc2n(CC(=O)Nc2c(C)cccc2CC)c1=O	.	4.3	5.6%	5.5	3.5	1.9
CCCn1c(=NC(=O)c2cc3ccccc3o2)c(C(=O)OCC)cc2c(=O)n3ccccc3nc21	.	6.3	8.7%	.	-0.1	.
O=C(NCC1CCCO1)c1cn(-c2ccccc2)nc1-c1ccc(F)cc1 (centres undefined)	4.1	23.3	1.3%	1.8	0.3	-1.4
COc1ccccc1Cn1c(=O)c2ccccc2n2c(Sc3ncnc4sccc34)nnc12	-3.7	2.3	-6.4%	-4.8	1.0	0.3
Nc1c(C(=O)Nc2ccc(Cl)cc2F)sc2nc(-c3cccs3)ccc12	.	-21.5	8.3%	.	5.7	.
CC(=O)Nc1ccc(S(=O)(=O)N2CCN=C2c2ccccc2)cc1	-1.1	17.7	0.5%	4.3	0.3	-3.7
COc1ccc(CN(C)C(C)C(=O)Nc2ccc(S(=O)(=O)N3CCCCC3)cc2)c(OC)c1 (centres undefined)	-4.6	-0.8	-0.2%	-16.8	0.6	-0.6
CCCn1c(=O)c(C(=O)Nc2ccccc2C(=O)OC)c(O)c2ccccc21	4.9	49.8	1.0%	15.9	-0.3	-3.5
COc1ccc(C(=O)NCCN2CCN(C(=O)c3ccc(OC)c(OC)c3)CC2)cc1OC	-1.5	14.7	2.2%	-11.6	-0.9	-7.9
Cn1nc(C(C)(C)C)cc1C(=O)NNC(=O)c1cccc(Cl)c1	7.3	-12.0	2.5%	11.3	1.7	6.9
Cc1cc(C(=O)N/N=C/c2ccc([N+](=O)[O-])cc2)c2ccccc2n1	-11.8	7.9	6.0%	-1.6	3.8	1.4
CC(=O)Nc1ccc(OC(=O)N2CCCC2)cc1	.	1.6	-0.4%	0.7	-0.6	0.4
Cc1c(C)c2ccc(OCC(=O)Nc3nccs3)cc2oc1=O	.	6.0	0.1%	-5.5	0.0	0.0
CCC(C(=O)NCc1ccco1)N(C(=O)CNS(=O)(=O)c1ccccc1)c1ccc(F)cc1 (centres undefined)	38.7	21.4	3.0%	-7.5	0.0	-5.2
CC1(c2nnnn2Cc2ccccc2)CCC(=O)N1Cc1ccco1 (centres undefined)	3.9	.	0.2%	14.6	-0.5	.
O=C(NCc1ccccc1)C1CCN(S(=O)(=O)N2CCOCC2)CC1	3.5	1.6	1.1%[38.3 µM]	5.3	0.3	2.2
Cc1cc2oc(C(=O)NCC(c3ccco3)N3CCCC3)c(C)c2cc1C (centres undefined)	-8.3	25.5	1.3%	-8.3	-0.3	1.4
CCOC(=O)COc1cc(Br)c(C2NC(=O)NC(C)=C2C(C)=O)cc1OCC (centres undefined)	11.3	4.0	0.6%[38.3 µM]	1.0	-0.8	5.1
CC(C)=C1C(=O)NN(c2ccc(C)c(Cl)c2)C1=O	-12.5	-0.7	-2.8%	4.4	-0.2	-3.0
O=C(CSc1nc2ccccc2c(=O)[nH]1)N1CCN(c2ccccc2F)CC1	-3.2	-5.1	2.2%	1.9	1.8	-3.7
CCOc1ccc2ccccc2c1/C=N/n1cncn1	-0.1	8.4	-2.2%	-1.7	-0.9	-1.0
O=C1c2ccccc2C(=O)N1C1CCCCC1	11.8	-0.9	2.4%	16.4	0.6	4.6
Cc1cc(C)n(-c2nc(-c3ccccc3)cs2)n1	26.1	-19.5	-0.2%	24.6	4.1	-4.9
O=C(NCC1CCCO1)c1c(O)c2cccc3c2n(c1=O)CCC3 (centres undefined)	0.3	11.4	0.8%	-1.0	-0.7	-0.4
COc1cccc(C(=O)NC2C(=O)N3C(C(=O)O)=C(COC(C)=O)CSC23)c1 (centres undefined)	.	3.9	0.7%	-9.7	-0.7	-5.1
CCCCCCn1cc(C(=O)O)c(=O)c2cc(F)c(N3CCCCC3)cc21	-1.6	-20.9	0.8%	-3.4	0.1	-5.4
CC(=O)Nc1cccc(-c2ccnc3c2CC(C(=O)NC(C)C)O3)c1 (centres undefined)	-18.6	.	0.6%	8.4	-0.1	3.5
COc1ccc(NC(=O)c2cc(-c3ccc(C)c(C)c3O)n[nH]2)cc1Cl	-0.3	-3.3	10.9%	1.7	2.1	7.1
CCOC(=O)c1c(C)oc2cc(Br)c(OC(C)C(=O)OCC)cc12 (centres undefined)	68.0	3.7	12.7%[38.3 µM]	50.7	0.0	-5.5
CCOc1ccc(S(=O)(=O)NCCC(=O)NC2CCN(Cc3ccccc3)CC2)cc1	-1.6	-0.5	-1.0%	7.9	-0.5	-9.1
COCCCNC(=S)N1CCC(NC(=O)c2ccco2)CC1	17.4	-11.1	2.2%	1.3	-0.5	6.1
COCCn1c(SCC(=O)c2ccccc2)nc2cc(C(=O)NC3CCCC3)ccc2c1=O	.	-20.3	-1.1%	.	-0.1	.
C(=C\c1ccccc1)/C=N/Nc1nc(N2CCOCC2)nc(N2CCOCC2)n1	8.6	-4.3	-0.1%	-1.5	-0.8	-1.0
O=C(NCc1ccc(F)cc1)N1CCc2ccccc2C1	5.3	29.3	0.8%	2.5	-0.7	0.1
[O-][n+]1onc2c1CCC1N(O)C(c3ccccc3)CC21O (centres undefined)	17.2	17.6	9.1%[38.3 µM]	7.0	0.7	-1.1
CC1(C(=O)NS(=O)(=O)Cc2cccc(Cl)c2)CCN1C(=O)Cc1cccs1 (centres undefined)	41.7	.	0.0%	37.7	0.8	1.4
CC1CCN(CC(=O)Nc2ccccc2-c2ccccc2)CC1	5.4	-5.7	?	7.2	-0.2	-1.4
CCCCN1C(=O)C(=O)N(CC(=O)Nc2sc(CC)cc2C(=O)OCC)C1=O	-4.5	15.9	0.5%	2.2	0.5	-2.0

Bioassay records (PubChem)

Compounds as they come. About 1% of those tested had a hit in this group.
